Mtb H37Rv – Mycobacterium tuberculosis H37Rv growth inhibition, cell based, confirmatory dose response (AID 1949) | most inactive calls were filed without a number and no value below 0 was filed | one-dose inhibition, % at 10 µg/mL; IC50 in µg/mL for titrated hits | hit rate 1.6% among 100,000;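 active means confirmed in a dose series; inconclusive means about 50% or more but not retested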;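 further: bacteria grown 7 days with compound before Alamar blue readout; 0% = untreated bacteria and 100% = reference antibiotic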
Active calls of the source: *; i = inactive; ? = inconclusive. These rows are one share of the data, so the mix of outcomes need not match the whole.

SMILES,Mtb H37Rv
CCCCNC(=O)Nc1cc(C(=O)OC)ccc1Cl,i
FC(F)(F)c1cccc(NC(=S)Nc2ccc3nccnc3c2)c1,10.2%
CC(=O)c1ccc(NC(=O)COc2ccc(Cl)cc2Br)cc1,i
COc1cc(OC)cc(C(=O)Nc2nc(C)c(C)s2)c1,i
CC(C)(C)NCCCOc1ccc(Cl)cc1C(C)(C)C,23.3µg/mL*
Cc1cc(NC(=O)C(=O)NCc2ccc(Cl)cc2)ccc1Br,i
COc1cc(CO)c(Br)cc1O,2.6%
COc1cccc(S(=O)(=O)Nc2cccc(C)c2)c1,3.1%
Cc1cccc(OCC(=O)Nc2ccc3c(c2)nc(CCNC(=O)c2ccco2)n3C)c1,i
Brc1ccc(CN2CCC(N3CCN(c4ccccc4)CC3)CC2)cc1,11.1%

(more compounds)
SMILES,Mtb H37Rv
C=CCn1c2ccccc2c2nnc(SCC(=O)c3ccc(C)cc3)nc21,i
CCCCC(=O)Nc1ccc(N2CCN(S(C)(=O)=O)CC2)cc1,i
CCCc1oc(C(=O)O)cc1CN1CCCCC1,i
CC1(C)NC(=O)N(CCOc2ccc(F)cc2)C1=O,i
CCC(=O)Nc1ccc(C(=O)Nc2ccc(C(=O)OC)cc2)cc1,i
COc1ccc(OC)c(NC(=O)COc2c(C)cc(C)cc2C)c1,?
CC(C)c1ccc(C(=O)NC2CCCC2)cc1,i
O=C(CC1Sc2ccc(C(F)(F)F)cc2NC1=O)Nc1cc(Cl)cc(Cl)c1 (stereo not given),i
COC(=O)c1c(NS(=O)(=O)c2ccc(OC)c(Cl)c2Cl)sc2c1CCCC2,i
COc1ccc(/C(N)=N/OC(=O)COc2cc(C)cc(C)c2C)cc1,0.2%

Remaining list, next part
SMILES,Mtb H37Rv
COc1ccc(OC)c(NC(=O)c2c(F)cccc2F)c1,i
COc1ccc(C2NC(=O)NC3=C2CCc2ccccc23)cc1[N+](=O)[O-] (stereo not given),2.9%
O=C(CSc1ccc([N+](=O)[O-])cn1)Nc1ccc2c(c1)OCO2,7.47µg/mL*
CCOc1ccc(NC(=O)CC(c2ccccc2)c2ccccc2)c([N+](=O)[O-])c1,i
COc1cccc(OCC(Cn2c(C)nc3ccccc32)OC(C)=O)c1 (stereo not given),i
O=C(CSc1nnc(Cc2ccccc2)o1)NC1CCCCC1,i
COc1ccc(CNc2nc3ccccc3n2C)c(O)c1,i
Cc1ccc(OCC(=O)NC(=S)Nc2ccc(Br)cn2)cc1C,i
CCC(C)(C)NC(=O)Cc1ccccc1OC,i
CCOc1ccccc1C(=O)Nc1ccc(Oc2ccccc2)cc1,i

Further compounds.
SMILES,Mtb H37Rv
Cc1cc(OC(=O)COc2ccc3ccccc3c2)ccc1Br,5.9%
COc1cccc(-c2ccc3c(N)c(C(=O)Nc4cc(OC)ccc4OC)sc3n2)c1,i
Cc1ccc(C)c(NC(=O)CN(c2ccc(C)c(C)c2)S(=O)(=O)c2ccc(Cl)cc2)c1,i
CCOc1cccc(OCCOCCN(C)Cc2ccccc2)c1,i
CN(CC(=O)Nc1ccccc1Br)S(=O)(=O)c1cc(Cl)ccc1Cl,i
CC(NCc1cccn1C)c1ccccc1 (stereo not given),i
CCCCOCCCNC(=O)c1cc(OC)c(OC)c(OC)c1,i
C=CCOc1c(C)c(O)cc(C)c1C(=O)OC,i
O=Cc1cccn1CCOc1ccccc1,i
Cn1ccnc1SCC(=O)Nc1ccc2c(c1)COC2=O,i

Remaining list, next part:
SMILES,Mtb H37Rv
CCn1c(C(O)c2ccc(OCc3ccccc3)cc2)nc2ccccc21 (stereo not given),37.5%
Cn1nnc2cc(C(=O)Nc3cccc([N+](=O)[O-])c3)ccc21,i
CCCCOC(=O)Nc1nc(CC(=O)OCC)cs1,i
CCOC(=O)CCc1c(C)c2ccc(OCC(=O)c3ccc(N4CCCC4)cc3)c(C)c2oc1=O,i
CC(C)(Oc1ccc(Cl)cc1)C(=O)Nc1nnc(-c2ccncc2)s1,1.2%
COc1ccc(S(=O)(=O)N(C)CC(=O)N2CCc3ccccc3C2)cc1,i
COCCNC(=O)c1ccccc1NC(=O)c1cccc(Cl)c1,i
Cc1cccc(Nc2nc(NCc3ccco3)c3ccccc3n2)c1,1.86µg/mL*
Cc1cc(C(C)(C)C)cc(C)c1CSc1nnc(N)s1,i
S=C1NCN(Cc2ccc3c(c2)OCO3)CN1,i

Further results follow.
SMILES,Mtb H37Rv
CNC(=S)Nc1ccc(OC)cc1C,i
Cc1ccnc(-n2c(C)cc(C=O)c2C)c1,i
O=C(C1CCN(Cc2ccccc2)CC1)N(CCc1ccccc1)Cc1ccccc1,5.0%
Cc1cccc(C(=O)NCc2n[nH]c(=S)n2-c2ccccc2)c1,i
Cc1cc(C)nc(NS(=O)(=O)c2ccc(NC(=O)c3ccc(Br)cc3)cc2)n1,i
CC1CCN(C(=O)CN(C2CCCCC2)S(C)(=O)=O)CC1,i
CN(C)C12CC3CC(CC(O)(C3)C1)C2,i
COc1cc(CNC(C)(C)C)cc(Br)c1OCc1cccs1,i
CNC(=O)CN(c1ccc(OC)cc1)S(C)(=O)=O,i
CCOc1nnc(-c2ccccc2)c2ccccc12,i

Following part
SMILES,Mtb H37Rv
COc1cccc(CNc2ccc(C)c(Cl)c2)c1,5.6%
CCOC(=O)Cc1csc(NC(=O)COc2ccccc2CC)n1,i
Cc1oc(CC(C)C)c(C(=O)O)c1CN1CCOCC1,i
CC(C)CC(=O)Nc1ccc(O)cc1C(=O)O,i
COC(=O)c1c(-c2ccc(Cl)cc2)csc1NC(=O)c1c(F)c(F)c(F)c(F)c1F,44.5%
CCc1ccc(OCC(=O)Nc2cccc(C)n2)c(Br)c1,i
COc1cccc(NC(=O)CSc2nc3ccccc3o2)c1,i
CCOC(=O)C1=C(C)NC(=O)CC1c1c(F)cccc1Cl (stereo not given),i
O=C(Nc1cccc(F)c1)c1cc(-c2cccs2)nc2ccccc12,i
O=C(Oc1c(-c2ccccc2)oc2ccccc2c1=O)c1cccnc1,?

Next part.
SMILES,Mtb H37Rv
CC(C(=O)Oc1ccc(Br)cc1)N1C(=O)C2C3C=CC(C4CC34)C2C1=O (stereo not given),32.1%
COc1cc(C(O)c2nc3ccccc3n2C(C)C)ccc1OCc1ccccc1 (stereo not given),8.6%
COC(=O)c1ccccc1N(Cc1ccccc1)S(C)(=O)=O,i
O=C(NCC1(c2ccccc2)CCCC1)c1ccc(NC(=O)c2ccco2)cc1,11.8%
CCc1ccc(N(CC(=O)NCc2ccncc2)S(C)(=O)=O)cc1,i
CC(=O)Oc1ccc(C(=O)Nc2cccc3c2CCCC3)cc1,i
CCc1ccc(CN2CCN(S(=O)(=O)c3ccc([N+](=O)[O-])cc3)CC2)cc1,i
CCCC1=C(C(=O)OCC)C(c2cccnc2)n2nc(C)nc2N1 (stereo not given),i
CN(C)CCCNC(=S)NC1CC1,i
O=C(Nc1nc(-c2ccccc2)cs1)c1c(O)c2ccccc2[nH]c1=O,i

Following part.
SMILES,Mtb H37Rv
CCn1c(=O)c([N+](=O)[O-])c(N2CCN(c3ccccn3)CC2)c2ccccc21,i
COc1ccccc1C(=O)Nc1ccc2nc(CCNC(=O)c3ccccc3)n(C)c2c1,i
CCn1c(CNC(=O)c2ccc(Cl)cc2Cl)nnc1SCC(=O)Nc1cccc(OC)c1,i
COc1ccc(NS(=O)(=O)c2ccc(NC(=O)COc3ccc(C)cc3C)cc2)cc1,i
CCOC(=O)c1c(C)n(C)c2ccc(OC(=O)CN3C(=O)c4ccccc4C3=O)cc12,i
FC(F)(F)c1nc(NCc2cccnc2)c2ccccc2n1,i
COC(=O)c1ccccc1NC(=O)C1(C)Cc2ccccc2C(=O)O1 (stereo not given),i
Cc1ccc(OCC(=O)NC(=S)N2CCCC2)cc1,i
O=C(COc1ccc2ccccc2c1)NCCC1=CCCCC1,2.4%
COC(=O)c1sc2cc(NC(=S)NNC(=O)c3ccoc3C)ccc2c1Cl,i

Other structures:
SMILES,Mtb H37Rv
COc1ccc(N2CCN(C3CC(=O)N(C)C3=O)CC2)cc1 (stereo not given),8.0%
Cc1ccc(CNc2ccc(N3CCOCC3)c(Cl)c2)cc1,i
CCN(CC)CC(=O)Nc1nnc(C23CC4CC(CC(C4)C2)C3)s1,22.6%
Cc1cc(C(=O)OCc2cccc(Cl)c2)ccc1[N+](=O)[O-],4.9%
CN(C)S(=O)(=O)c1ccc(C(=O)Nc2ccccc2OC(F)(F)C(F)F)cc1,2.0%
CCOC(=O)N1CCN(c2nc(-c3ccco3)cc(C(F)(F)F)n2)CC1,5.3%
COc1ccc(NS(=O)(=O)c2ccc(NS(=O)(=O)c3ccc(C)c([N+](=O)[O-])c3)cc2)cc1,i
COc1cc(CNC(C)c2ccccc2)cc(Br)c1OCc1ccc(F)cc1 (stereo not given),4.06µg/mL*
COc1ccc(OCC(=O)Oc2ccccc2Cl)cc1,i
Cc1ccc(-c2cc(C(=O)N3CCN(c4ccc([N+](=O)[O-])cc4)CC3)c3ccccc3n2)s1,i

(continued)
SMILES,Mtb H37Rv
CC1=C(C(=O)Nc2ccc(F)cc2F)C(c2ccc(Br)cc2)C2=C(CCCC2=O)N1 (stereo not given),i
O=C(CSc1nc2ccc([N+](=O)[O-])cc2s1)N1CCN(c2ccccc2)CC1,6.2%
COc1cc(OC)c(OC)cc1CN1CCC(N2CCc3ccccc3C2)CC1,i
COc1cc(NC(=S)NC(C)(C)C)c(OC)cc1Cl,i
COC(=O)C1=CNC=C(C(=O)OC)C1c1cccc(Br)c1,i
CCCCNCCOCCOc1ccc(C)cc1[N+](=O)[O-],i
COc1ccc(NC(=O)CN(c2ccccc2Br)S(C)(=O)=O)c(OC)c1,1.0%
O=C1c2ccccc2C(=O)N1CCCc1nc2ccccc2c(=O)n1-c1nc2ccccc2s1,i
COCCCN1C(=O)c2ccc(C(=O)Nc3ccc(I)cc3)cc2C1=O,i
CC(C)COc1ccc(CNC(=S)NCc2ccccc2)cc1,4.39µg/mL*

The listing continues.
SMILES,Mtb H37Rv
COc1ccc(-c2nnc(SC(C)C(=O)Nc3nccs3)n2Cc2ccccc2)cc1OC (stereo not given),i
CC(=O)N1N=C(c2cccs2)CC1c1cccs1 (stereo not given),0.5%
CC(=O)C(C)Sc1ncnc2sc(-c3ccccc3)cc12 (stereo not given),i
COc1ccccc1OCC(=O)Nc1ccccc1C(C)(C)C,i
CCOC(=O)C1CCN(C(=O)c2ccccc2Br)CC1,i
CC(C)c1ccc(C(=O)Nc2ccncc2)cc1,i
CCOC(=O)Cn1c(C(F)(F)F)nc2ccccc21,i
COc1cc(CO)c(Br)cc1OCc1ccccc1,2.9%
c1coc(CN2CCN(C3CCCCCC3)CC2)c1,i
Cn1c(CCCOc2ccc(Cl)cc2Cl)nnc1SCC(=O)Nc1sc2c(c1C#N)CCCC2,i

The list goes on:
SMILES,Mtb H37Rv
O=C(NNC(=S)Nc1cccc(Cl)c1Cl)c1cc2ccccc2cc1O,i
CCN(CC)c1ccc(NC(=O)C23CC4CC(CC(C4)C2)C3)cc1,i
O=S(=O)(Nc1ccc(S(=O)(=O)N2CCCC2)cc1)c1ccc(Br)s1,i
CCCn1nnnc1NCc1ccc(C(C)C)cc1,i
O=C(c1cccs1)N1CCN(Cc2cccc(Oc3ccccc3)c2)CC1,i
Cc1c(Cl)cccc1-n1c(C)cc(CO)c1C,i
COc1ccccc1C(=O)NNC(=O)c1ccc(C)c(Br)c1,i
COc1cc(NC(=O)c2ccccc2)c(OC)cc1NC(=O)COc1ccc(Cl)cc1Cl,i
c1ccc(SCCCOc2cccc3ccccc23)nc1,3.1%
CCOC(=O)c1c(NC(=S)NCCn2cc(Br)cn2)sc(C)c1-c1ccccc1,2.9%

(further entries)
SMILES,Mtb H37Rv
CCCC(=O)N1CCN(c2ccc(NC(=O)c3ccc(-c4ccccc4)cc3)cc2)CC1,i
COc1cccc(OCc2nc(-c3ccccc3)no2)c1,i
O=C(Nc1ccccc1C(=O)NCCCn1ccnc1)c1ccco1,i
CCN(CC)c1ccc(NC(=S)NCc2ccc(Cl)cc2)cc1,3.18µg/mL*
CCOC(=O)c1c(C)n(C)c2ccc(OCC(N)=O)cc12,i
Cc1cc(C)nc(SCc2nnc(SCC(=O)Nc3ccc(S(N)(=O)=O)cc3)n2C)n1,3.0%
O=C(Nc1ccc(N2CCCC2)c(Cl)c1)c1ccccc1F,5.78µg/mL*
COc1cccc(NC(=O)CN(C)S(=O)(=O)c2ccccc2)c1,i
O=Cc1ccc(-c2ccc(Cl)cc2F)o1,5.3%
CS(=O)(=O)N(CC(=O)Nc1ccc(OCc2ccccc2)cc1)c1cc(Cl)ccc1Cl,4.2%

Following part:
SMILES,Mtb H37Rv
CCn1c(SCC(=O)Nc2nccs2)nnc1-c1ccccc1,i
CCOc1ccc2ccc(OCC)c(C=O)c2c1,i
CC(C)OC(=O)c1ccc(NC(=O)C2C3CC4OC(=O)C2C4C3)cc1 (stereo not given),i
O=C1CCCN1S(=O)(=O)c1ccccc1,i
CC1CCC(NC(=O)C(NC(=O)c2ccccc2)C(C)C)CC1 (stereo not given),i
COc1cc2c(cc1NS(=O)(=O)c1ccc(OC)c3ccccc13)oc1ccccc12,3.9%

Assay outcomes: PubChem BioAssay, Southern Research Institute
